From PubChem BioAssay
Six1-Eya2 blk = Six1/Eya2 interaction inhibition; Q15475+O00167; 360,000 tested, 0.56% active; activity change, % (no concentration beside the values); AlphaScreen GST-Six1/His-Eya2 binding, biochemical; hits give low values; control for the full effect not named in the record; in the data active = activity change below about -65%; inconclusive = about -30% to -65%; inactive = above about -30%; further: on the % scale 0 is the no-effect control and ±100 the full control effect; compound concentration not given in the record
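Compounds are tested against tagged Six1 and Eya2 proteins bridged by glutathione donor and nickel acceptor beads; after a one-hour incubation at 37 °C without light, AlphaScreen emission is recorded.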
D2 PAM = human D2 receptor positive allosteric modulation. P14416. DiscoveRx D2 beta-arrestin cells, luminescence, 90 min; 100% = 57 uM dopamine signal. potentiation, % (no concentration beside the values). 360,000 tested, 0.23% active. AID 624464; active = potentiation of 50% or more; inconclusive = 30% to 50%; inactive = 30% or less;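 further: compound concentration not given in the record; tested on top of an EC20 dose of dopamine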
Target sequence (P14416 whole entry, looked up): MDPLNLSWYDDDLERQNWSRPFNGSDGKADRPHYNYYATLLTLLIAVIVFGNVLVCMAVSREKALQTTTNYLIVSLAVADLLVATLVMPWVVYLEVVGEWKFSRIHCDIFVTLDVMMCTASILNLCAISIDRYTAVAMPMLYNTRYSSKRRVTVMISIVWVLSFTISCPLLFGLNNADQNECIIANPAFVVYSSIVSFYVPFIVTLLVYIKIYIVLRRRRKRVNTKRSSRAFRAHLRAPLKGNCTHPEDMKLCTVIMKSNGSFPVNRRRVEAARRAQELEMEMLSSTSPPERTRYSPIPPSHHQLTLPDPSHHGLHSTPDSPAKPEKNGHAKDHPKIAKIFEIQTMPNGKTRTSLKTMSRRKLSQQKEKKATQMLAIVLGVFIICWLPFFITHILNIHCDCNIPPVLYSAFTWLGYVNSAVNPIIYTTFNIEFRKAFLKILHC
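PathHunter beta-arrestin assay in DiscoveRx D2 cells. Compounds were added with an EC20 of dopamine (50 nM final) for 90 min at 37 deg C. Luminescence was read 1 h after detection reagent, with 57 uM dopamine as the EC100 control.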
D2 ag = human D2 receptor agonism in beta-arrestin assay | DiscoveRx PathHunter D2 beta-arrestin, luminescence, 90 min; 100% = 57 uM dopamine signal | 360,000 tested, 0.084% active | AID 624465 | activation, % (no concentration beside the values); in the data active = activation above about 40%; inconclusive = about 15% to 40%; inactive = below about 15%; further: compound concentration not given in the record; the text of the record calls up to 30% inactive
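DiscoveRx PathHunter D2 beta-arrestin cells (2,100/well) attached overnight, then compound-stimulated 90 min at 37 C in HBSS/10 mM HEPES/0.1% Tween-20 buffer; beta-galactosidase complementation read by luminescence after 1 h at ambient temperature. Dopamine 57 uM final (EC100) as control.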
CtBP-E1A inh = blocks the CtBP interaction with E1A | AlphaScreen GST-E1A/His-CtBP binding, 1536-well; hits give low values; control for the full effect not named in the record | activity change, % (test concentration not listed) | 340,000 tested, 0.49% active | AID 651724; in the data active means activity change below about -65%; inconclusive means about -30% to -65%; inactive means above about -30%; further: on the % scale 0 is the no-effect control and ±100 the full control effect; compound concentration not given in the record
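GST-E1A and His-tagged CtBP (125 nM each as 5X stock) were preincubated with pin-transferred compound for 2 h at 37 °C in the dark, then glutathione donor and nickel acceptor beads were added for 1 h before AlphaScreen reading.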
gsp agonist = agonists of gsp mutant (McCune-Albright syndrome). gsp mutant cells, cAMP HTRF, 30 min; control for the full effect not named in the record. Potency, µM (top dose mostly 76.9 µM), inactives show at the top dose activation (cAMP increase), usual class: activators. AID 624287. 340,000 tested, 0.13% active; active = well fitted activation curve with a large enough effect; inconclusive = small, poorly fitted or top-dose-only effect, or another doubt; inactive = no such curve, though single readings can be large or run the other way; cell line not stated here;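 further: phosphodiesterase inhibitor Ro 20-1724 added with compounds to block cAMP breakdown; potency means the concentration at half of the fitted maximal effect; nearly all actives have a fitted effect of over 60% in size; about a fifth of the inactives were tested at one dose only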
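Cells in DMEM/10% FBS with G418 were pretreated with compounds in DMSO plus […] (300 uM stock) for 30 min at 37C. cAMP was measured by HTRF (cAMP-d2 plus anti-cAMP antibody-K) after 30 min at room temperature.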
gsp antag = antagonizes gsp, the McCune-Albright syndrome mutation; Potency, µM (top dose mostly 76.9 µM), for inactives: at the highest dose activity change, negative = inhibition, hits mostly inhibitors; 340,000 tested, 0.4% active; gsp-mutant cells, cAMP HTRF, 30 min; control for the full effect not named in the record; active = falling curve of any shape with a large fitted effect; inconclusive = falling curve, mostly with a smaller effect; inactive = flat or rising curve; cell line not stated here;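 further: intracellular cAMP measured with PDE inhibitor Ro 20-1724 present during compound exposure; potency means the concentration at half of the fitted maximal effect; on the % scale 0 is the no-effect control and ±100 the full control effect; nearly all actives have a fitted effect of over 65% in size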
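Cells in G418 medium, seeded 16-24 h, 37C; buffer exchange to DPBS + 1 mM CaCl2, 0.5 mM MgCl2, 0.05% BSA; cpds in DMSO + […] (300 uM stock), 30 min 37C; HTRF cAMP detection.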
An asterisk follows results filed as active; u = inconclusive; x = no result given; [ ] = remark or other dose. Not a hit list. About 1.4% of those tested had a hit in this group.

SMILES | Six1-Eya2 blk | D2 PAM | D2 ag | CtBP-E1A inh | gsp agonist | gsp antag
COc1ccccc1-n1cnnc1SC(C)C(=O)Nc1ccc(NC(C)=O)cc1 (centres undefined) | 3 | -3 | -2.0 | 9 | -5%[15.4 µM] | 13%
O=C(/C=C/c1ccccc1)Nc1cccnc1Oc1ccccc1F | 20 | -2 | -0.3 | -2 | 7% | -12%
CCOc1ccc(S(=O)(=O)NCCC(=O)NCC(c2ccc(OC)cc2)N2CCCC2)cc1 (centres undefined) | 0 | -2 | 2.1 | -1 | 10% | 0%
Cc1ccccc1N1CCN(S(=O)(=O)c2ccc3ccccc3c2)CC1 | 4 | -7 | -7.1 | -19 | -17%[15.4 µM] | -9%
O=C(COC(=O)c1n[nH]c2ccccc12)NC(=O)NC1CCCC1 | -4 | u | -2.9 | 0 | u | -8%
CC1(C)CC(N2CCOCC2)=CC(=S)N1 | 1 | 0 | -3.5 | 3 | x | x
COc1ccc(C2=NCCn3cccc32)c(OC)c1 | -5 | -17 | -0.1 | -2 | -28% | 20%
Cc1ccc(O)c(CP(=O)(c2ccccc2)c2ccccc2)c1 | -2 | -23 | -0.4 | 8 | 19%[15.4 µM] | -13%
Cc1cccc2sc(NC(=O)Cn3cccc3)nc12 | -21 | -2 | 5.5 | -12 | -26% | 1%
CCOc1ccc2nc(NS(C)(=O)=O)sc2c1 | -1 | 0 | -3.0 | -1 | 0% | -2%
C=CCNc1ncnc2c1[nH]c1ccc(C)cc12 | -8 | -7 | 4.1 | -13 | 4% | u
O=C(C1CCCN(C2CC(=O)N(c3ccc(Cl)cc3)C2=O)C1)N1CCCC1 (centres undefined) | -3 | 2 | -2.7 | 2 | -2%[15.4 µM] | 11%
CC1=CCC2C(=O)N(c3nc(C)cc(C)n3)C(=O)C2C1 (centres undefined) | -1 | -15 | -2.3 | 9 | -25% | 11%
O=C(CCCC(=O)NN=Cc1cccc(O)c1)NN=Cc1cccc(O)c1 | -15 | 6 | 3.8 | -15 | 11% | 2%
O=C(NCc1ccco1)/C(=C\c1ccco1)NC(=O)c1ccc(Br)o1 | 1 | -6 | -3.7 | -2 | -8%[15.4 µM] | -17%
Cc1cc2[nH]c(=O)c(=O)[nH]c2cc1S(=O)(=O)NCc1ccc(Cl)cc1 | 1 | 2 | -1.5 | 8 | u | 9%
CN(C)CCCN(C(=O)c1ccc(S(=O)(=O)N2CCCCCC2)cc1)c1nc2cc3c(cc2s1)OCCO3 | -25 | -30 | -1.5 | -18 | -6%[15.4 µM] | -7%
C#Cc1ccc(CN2CCC(Oc3cc(C(=O)NC4CC4)ccc3OC)CC2)cc1 | 0 | -19 | 1.1 | x | -24% | -8%
COc1ccccc1NC(=O)CN(Cc1ccco1)C(=O)c1cncc(Br)c1 | 2 | -17 | -5.1 | x | -26% | 3%
O=[N+]([O-])c1cccc(/C(=N/N=C/c2ccccc2Br)C23CN4CN(CN(C4)C2)C3)c1 | 1 | -6 | -2.2 | 1 | 14% | 12%
Nc1nnc(CC(=O)N/N=C/c2ccccc2OCc2ccc(F)cc2)s1 | -2 | -7 | -2.8 | 3 | 16%[15.4 µM] | -14%
COc1ccccc1C1/C(=C(/O)c2ccccc2)C(=O)C(=O)N1CC(C)C (centres undefined) | 4 | 3 | 0.2 | 10 | u | 4%
Clc1cc(Cl)c(OCc2nc(-c3ccccn3)no2)cc1Cl | 19 | -5 | -2.7 | -1 | -39% | 0%
CCC1CCCCN1C(=O)CCc1nnc(Cc2cc(OC)ccc2OC)o1 (centres undefined) | 4 | 2 | 2.3 | -2 | -1%[15.4 µM] | -3%
COc1ccc(Cl)cc1NC(=O)CCCN1C(=O)CCC1=O | 3 | -3 | 0.6 | -1 | -16% | -1%
COCCNC(=O)CSc1nc2sccc2c(=O)n1-c1ccccc1 | 6 | -1 | -6.5 | 2 | 5%[15.4 µM] | -5%
CN(Cc1ccccc1)C(=O)c1ccc2c(c1)NC(=O)C(N1CCOCC1)S2 (centres undefined) | -2 | 3 | 3.9 | 7 | -7%[15.4 µM] | 1%
Cc1ccc(S(=O)(=O)Cn2nnnc2C(CC(C)C)N2CCC(C(N)=O)CC2)cc1 (centres undefined) | 2 | -4 | -15 | -1 | -5%[15.4 µM] | 6%
Cc1ccccc1NC(=O)Cn1nnc(S(=O)(=O)c2ccc(C(C)(C)C)cc2)c1N | 5 | -7 | -4.5 | 4 | 12% | -2%
COc1ccc(NC(=O)C2(C)CCN2Cc2ccc(SC)cc2)cc1OC (centres undefined) | -12 | -2 | 3.9 | 0 | x | x
Cc1ccc(-c2cc(=O)c3cc(C)ccc3[nH]2)cc1 | 2 | -33 | -4.1 | 0 | x | -1%
Cn1ncc(Br)c1C(=O)NC1C2CC3CC(C2)CC1C3 (centres undefined) | 22 | -1 | 1.5 | 8 | 7% | 4%
COc1ccc(NC(=O)CN2CCN(CC(=O)Nc3ccc4c(c3)OCO4)CC2)cc1 | 0 | -6 | -3.1 | 0 | u | 1%
O=C(NCc1cccs1)C1CC(c2ccc(Cl)cc2)=NO1 (centres undefined) | 20 | 12 | 1.5 | -16 | -3%[15.4 µM] | -11%
COCCNC(=S)N1CCN(c2nc(-c3ccc(Cl)cc3)cs2)CC1 | -6 | -1 | -1.4 | -16 | 21% | u
COc1cccc2c1C(=O)c1c(O)c3c(c(O)c1C2=O)CC(O)(C(C)=O)CC3OC1CC(O)C(O)C(C)O1 (centres undefined) | -19 | 12 | 12 | -21 | 19% | u
CC(C)NC(=O)C(c1ccc(F)cc1)N(C(=O)CCC(=O)Nc1ccccn1)c1ccccc1F (centres undefined) | 1 | -8 | -0.5 | -2 | -5%[15.4 µM] | 8%
CN1c2ccsc2C(=O)/C(=C\Nc2cccc(C(F)(F)F)c2)S1(=O)=O | 4 | -5 | -1.4 | -2 | 2%[15.4 µM] | 12%
COc1cccc(NC(=O)NNC(=O)COc2ccc3ccccc3c2)c1 | -1 | -9 | -2.7 | -18 | -41%[inhibitor] | 2%
CCn1c(=S)[nH]c2c(c1=O)C(C)(C)Cc1ccccc1-2 | -2 | -7 | -4.1 | 8 | 2.8µM* | 34%[activator]
CCOc1ccc2[nH]c(=O)c(CN(Cc3nnnn3Cc3ccco3)C3CCCCC3)cc2c1 | 2 | 1 | -7.3 | 2 | 18% | -14%[15.4 µM]
COc1cccc(CNC(=O)C(C)n2ccc3cc(S(=O)(=O)N4CCCC4)ccc32)c1 (centres undefined) | -2 | 2 | 1.7 | 1 | -3% | -6%
Nn1c(-c2ccc(O)cc2)nnc1-c1ccc(O)cc1 | 0 | 2 | -4.6 | 1 | 1% | 11%
CCCCCn1c(=O)[nH]c2cc(C(=O)NCCN3CCC(C)CC3)ccc2c1=O | 10 | -13 | -3.7 | 0 | 14%[15.4 µM] | -5%
ON=Cc1cccn1-c1ccccc1 | -7 | 10 | 1.6 | -1 | -18% | 6%
CC(NC(=O)CN1c2cccc3cccc(c23)S1(=O)=O)c1ccccc1 (centres undefined) | 12 | -6 | -1.1 | -19 | 6% | x
Cn1cccc1Cc1nnc(SCC(=O)Nc2nc3ccccc3s2)n1CCc1ccccc1 | -2 | -4 | 0.3 | -7 | u | 3%
O=c1oc2c(CN3CCN(CCO)CC3)c(O)ccc2cc1-c1ccccn1 | -2 | 3 | 4.4 | 2 | 21%[15.4 µM] | -8%
O=C(c1noc2c1CCCCC2)N1CCOCC1 | -5 | 3 | -1.8 | -4 | 6% | 11%
CCOC(=O)CN(C(=O)CSc1nnc(CNc2ccc(F)cc2)o1)c1ccccc1 | -3 | -33 | -2.0 | -5 | -22% | -2%

Going on with the list:
SMILES | Six1-Eya2 blk | D2 PAM | D2 ag | CtBP-E1A inh | gsp agonist | gsp antag
CCn1c(=O)c(-c2nc3ccccc3[nH]2)c(O)c2ccccc21 | 2 | -2 | -1.1 | 0 | 6% | -6%
O=C(Cn1c2[n+](c3ccccc31)CC(O)CS2)c1ccccc1 (centres undefined) | 10 | -10 | -2.2 | 11 | -6%[15.4 µM] | 18%
CCCCc1nc2sc3c(c2c(=O)[nH]1)CCC3 | 0 | -4 | -3.7 | -3 | 12% | -3%
CC(C)C(=O)Nc1nnc(SCC(=O)NCc2ccc3c(c2)OCO3)s1 | -2 | -18 | -3.4 | -2 | 5%[15.4 µM] | -15%
COCCN(C(=O)C(C)C)c1nnc(-c2ccc(C(C)(C)C)cc2)s1 | 2 | -12 | -0.6 | -6 | -13%[15.4 µM] | -13%
Cc1ccc(OCC(=O)NCCc2nc3ccccc3[nH]2)c(C)c1 | 1 | -16 | 2.0 | 8 | u | -1%
CN1CN(C)c2cccc3cccc1c23 | -13 | 5 | -1.8 | -10 | -28% | -25%
Oc1ccc2[nH]cnc2c1CN1CCCCC1 | -3 | -15 | 0.1 | -2 | -2% | -1%
O=[N+]([O-])c1cc(/C=N/n2c(-c3cccnc3)n[nH]c2=S)ccc1Cl | -19 | -5 | 6.2 | -2 | 20% | -26%
Cc1ccc(S(=O)(=O)NCc2ccccc2)cc1C(=O)N1CCCCCCC1 | 7 | -10 | -1.6 | 3 | -57%[inhibitor] | -2%
Cc1ccc(C(=O)N(C)Cc2ccc(N3CCOCC3)cc2)cc1S(=O)(=O)NCc1ccccc1 | 0 | -5 | 3.6 | -8 | -17% | u
CC1CCN(S(=O)(=O)c2ccc(N=NC3=C(O)CC(C)(C)CC3=O)cc2)CC1 | -7 | -20 | -3.0 | 0 | -18% | 11%
O=C(c1ccc([N+](=O)[O-])cc1)N1CCOCC1 | 2 | -6 | 3.5 | 2 | -1% | -13%
Cc1ccc(SCC(=O)OCC(=O)Nc2ccc3[nH]c(=O)[nH]c3c2)cc1C | -9 | -30 | -4.6 | -5 | 1%[15.4 µM] | -4%
COC(=O)CCN(C(=O)c1cccc(OC(C)=O)c1)c1ccccn1 | 8 | 7 | -1.1 | 5 | -10% | -4%
CCOc1ccc(OCC)c(NC(=O)CN(C)S(=O)(=O)c2ccc3nc(C)sc3c2)c1 | -13 | -17 | -2.1 | -23 | 18%[15.4 µM] | -23%
O=C(Nc1cccc([N+](=O)[O-])c1)C(=O)N1CCCCC1 | 1 | -8 | 2.6 | x | u | 7%
Cc1nn2c3c(cnc2c1-c1ccccc1)C(=O)CC(c1ccccc1)C3 (centres undefined) | 8 | -1 | -2.4 | 7 | 1% | 1%
O=C(Nc1cccc(C(F)(F)F)c1)c1ccccc1NC(=O)C1CCCCC1 | 2 | -1 | 0.2 | -13 | 17% | 12%
NNC(=O)CNc1ccccc1Cl | 3 | -19 | 2.0 | 0 | -6%[15.4 µM] | x
O=C(O)c1ccc(Nc2cccc(F)c2)c([N+](=O)[O-])c1 | 3 | -4 | -4.9 | -4 | -15%[15.4 µM] | -12%
